KCNQ2 pot = potentiators of rat KCNQ2 potassium channel. Potassium voltage-gated channel subfamily KQT member 2 (Rattus norvegicus), O88943. CHO-K1 KCNQ2, FluxOR thallium flux fluorescence; stronger effect = higher value. B-score at 10 µM. actives 0.54% (n = 310,000). AID 2239, 2010;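 active = fluorescence ratio B-score at least 3 SD of library B-scores, with initial fluorescence B-score within 3 SD, cut at about 5.3 in these data; same plate scores as AID 2156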;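 also: B-score of peak minus minimum over baseline fluorescence ratio after K+ and Tl+ stimulus; positive B-score means potentiation of KCNQ2 with more thallium influx and brighter signal; only the inactives scoring about 0 or higher are listed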
Target sequence (O88943 whole entry, looked up): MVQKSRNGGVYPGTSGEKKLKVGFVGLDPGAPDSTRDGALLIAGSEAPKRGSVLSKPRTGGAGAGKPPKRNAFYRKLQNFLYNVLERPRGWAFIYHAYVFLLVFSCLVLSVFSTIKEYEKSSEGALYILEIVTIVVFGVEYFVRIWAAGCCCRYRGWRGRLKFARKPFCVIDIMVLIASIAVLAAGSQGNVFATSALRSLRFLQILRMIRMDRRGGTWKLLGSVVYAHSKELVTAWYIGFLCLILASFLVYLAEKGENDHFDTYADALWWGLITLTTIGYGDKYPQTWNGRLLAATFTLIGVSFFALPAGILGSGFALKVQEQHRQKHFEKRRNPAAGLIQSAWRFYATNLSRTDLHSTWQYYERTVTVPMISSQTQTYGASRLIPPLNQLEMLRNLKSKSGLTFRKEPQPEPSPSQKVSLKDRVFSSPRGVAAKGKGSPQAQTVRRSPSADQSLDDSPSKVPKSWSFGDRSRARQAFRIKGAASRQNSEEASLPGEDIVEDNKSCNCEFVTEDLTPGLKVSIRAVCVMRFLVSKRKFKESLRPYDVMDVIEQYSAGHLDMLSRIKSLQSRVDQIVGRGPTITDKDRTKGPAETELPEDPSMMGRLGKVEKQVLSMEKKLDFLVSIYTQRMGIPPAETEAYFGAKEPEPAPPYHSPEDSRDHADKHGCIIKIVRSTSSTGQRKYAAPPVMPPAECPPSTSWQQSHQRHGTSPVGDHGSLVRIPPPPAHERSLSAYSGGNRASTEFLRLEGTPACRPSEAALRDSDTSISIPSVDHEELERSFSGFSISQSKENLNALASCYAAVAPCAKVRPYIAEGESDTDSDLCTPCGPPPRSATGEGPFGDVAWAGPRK
KCNQ2 pot baseline = further read-out of KCNQ2 pot, marked with its call; B-score; compound at 10 µM; measured here: initial fluorescence intensity artifact check;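 brightness before thallium and not channel activity; 0 = typical well and far values either way flag optical interference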
An asterisk follows results filed as active.

SMILES	KCNQ2 pot	KCNQ2 pot baseline
C[C@H](NC(N)=O)C(=O)OCC(=O)Nc1ccc(OC(F)F)cc1	0.07	2
CNc1c(NS(=O)(=O)c2ccc(Cl)s2)c(=O)oc2ccccc12	1.8	-0.62
O=C(NCC(=O)N(c1ccc(F)cc1)C(C(=O)NCC1CCCO1)c1ccccc1)c1ccco1 (stereo not given)	0.21	3.9
Cc1nn(CC(=O)c2ccc(Cl)cc2Cl)c(C)[n+]1N	0.06	2.4
NC(=O)C1CCN(C(=O)c2cc3n(n2)C(C(F)(F)F)CC(c2ccco2)N3)CC1 (stereo not given)	0.8	-0.63
CCOC(=O)c1c(NC(=O)c2cc3n(n2)C(C(F)(F)F)CC(c2cccs2)N3)sc(C)c1C (stereo not given)	1.5	-0.72
CCOc1ccc(N(CC(=O)NCc2cccs2)S(=O)(=O)c2c(C)noc2C)cc1	0.47	0
O=C(CN1CCN(Cc2ccccc2Cl)C1=O)NC1CCCCCCC1	0.88	-2.4
O=C(/C=C/c1ccccc1)NCc1ccc2c(c1)OCO2	2	1.4
CCOc1ccccc1N(C)C(=O)c1cn(CC)c(=O)c2cc(OC)c(OC)cc12	0.8	-0.21
Cc1cccc(C)c1Nc1nnc(SCc2cc([N+](=O)[O-])cc3c2OCOC3)s1	0.03	0.58
COc1ccc(CNC(=O)C2CCC(CNc3nc(=S)[nH]c4ccccc34)CC2)cc1 (stereo not given)	0.04	1.2
Cc1ccc2c(CSc3nc4nc(C)cc(C)n4n3)cc(=O)oc2c1	2	-0.04
Cc1nc2ccccc2n1CCOc1ccccc1	0.01	-2
Cc1ccn2cc(-c3ccc(NS(=O)(=O)c4ccccc4)cc3)nc2c1	0.63	1.2
COc1ccccc1NS(=O)(=O)c1ccc2oc(=O)ccc2c1	1.3	-0.62
O=C(O)C1CCC(N2C(=O)c3cccc([N+](=O)[O-])c3C2=O)CC1 (stereo not given)	1.5	0.49
CCn1ncc(/C=N\NC(=O)COc2ccccc2)c1C	1.3	-0.84
COc1ccccc1N(CC(=O)Nc1ccc(F)c(F)c1)S(C)(=O)=O	0.85	-0.39
CCCCS(=O)(=O)N1CCC(C(=O)Oc2ccccc2OC)CC1	0.04	1.9
O=C(N/N=C/c1ccccn1)C1CC1	0.12	0.7
O=c1oc2ccccc2cc1-c1cn(-c2ccccc2)c(=S)[nH]1	1.2	-1.4
O=C(/C=C/c1ccccc1)N1CCCN(C(=O)/C=C/c2ccccc2)CC1	0.06	-0.76
CCOC(=O)CCC(=O)Nc1ccccc1C(N)=O	2.1	-0.22
CCn1c(SCC(=O)Nc2ccc(F)cc2)nc2ccccc2c1=O	0.45	0.05
CCC(C(=O)NCCc1ccc(OC)cc1OC)n1nc(C)n2c(cc3occc32)c1=O (stereo not given)	1.1	-0.82
O=c1[nH]c(COc2ccc(Br)cc2Cl)nc2ccccc12	2.7	0.45
COc1ccccc1C(=O)Nc1nnc(-c2ccccc2)s1	0.18	1.7
COC(C[C@@H]1O[C@@H]1[C@@H](O)COCc1ccccc1)OC	0.74	0.64
CC1CCCCC12NC(=O)N(CC(=O)Nc1cccnc1Cl)C2=O (stereo not given)	0.35	-3.1
CC(C)CN(C(=O)CN(C)S(=O)(=O)c1ccc(Cl)cc1)C1CCS(=O)(=O)C1 (stereo not given)	0.15	1.5
CCCNc1nc2c(c(=O)[nH]c(=O)n2C)n1CCc1ccccc1	0.69	-1.2
O=C(COC(=O)c1cc(-c2ccc(Cl)s2)nc2ccccc12)NCc1ccco1	0.02	-0.93
CSc1ccccc1NC(=O)CN(C)C(=O)CCc1c[nH]c2ccccc12	1.2	0.33
Cc1cc(N2C(=O)C(O)=C(C(=O)c3cccs3)C2c2cccc(O)c2)no1 (stereo not given)	0.13	1.2
O=C(Nc1ccc(S(=O)(=O)NC2=NCCCCC2)cc1)C1COc2ccccc2O1 (stereo not given)	1.1	-0.41

Laid out differently: entries from further up.
CC1CCCCC12NC(=O)N(CC(=O)Nc1cccnc1Cl)C2=O (stereo not given)
  KCNQ2 pot = 0.35; KCNQ2 pot baseline = -3.1

CC(C)CN(C(=O)CN(C)S(=O)(=O)c1ccc(Cl)cc1)C1CCS(=O)(=O)C1 (stereo not given)
  KCNQ2 pot = 0.15; KCNQ2 pot baseline = 1.5

CCCNc1nc2c(c(=O)[nH]c(=O)n2C)n1CCc1ccccc1
  KCNQ2 pot = 0.69; KCNQ2 pot baseline = -1.2

O=C(COC(=O)c1cc(-c2ccc(Cl)s2)nc2ccccc12)NCc1ccco1
  KCNQ2 pot = 0.02; KCNQ2 pot baseline = -0.93

Next section:
SMILES	KCNQ2 pot	KCNQ2 pot baseline
CCCC1=[N+](CC(=O)c2ccccc2)CCn2cccc21	2.6	-2.6
Cc1cccc(C(=O)Nc2ccc(C(=O)c3ccccc3)cc2)c1	0.68	-2.2
CC(=O)c1c(C)[nH]c(C(=O)OCC(=O)NCCC(C)C)c1C	0.26	-0.83
CCOC(=O)C1CCN(S(=O)(=O)c2ccc3c4c2CC(=O)N4CC(C)S3)CC1 (stereo not given)	0.1	-0.52
CCOC(=O)NC(=O)CSc1nc(C)cc(C(F)(F)F)c1C#N	0.02	1.3
O=C(NCC(c1ccco1)N1CCOCC1)c1ccc(F)c(F)c1 (stereo not given)	2	-0.36
Cc1cc(F)ccc1S(=O)(=O)N1CCCOC1CNC(=O)C(=O)NC1CCCCC1 (stereo not given)	0.81	0.61
N#CC(/C(=N/S(=O)(=O)c1cccs1)c1ccccc1)c1nc2ccccc2[nH]1 (stereo not given)	0.54	0.15
CCOc1ccc(C(Nc2ccc(C)cc2)P2(=O)OCC(C)(C)CO2)cc1 (stereo not given)	0.76	1.3
O=C(NCCCCCCNC(=O)OC1CCS(=O)(=O)C1)OC1CCS(=O)(=O)C1 (stereo not given)	1.3	-0.02
Cc1ccc(CNC(=O)C2CCCN2S(=O)(=O)c2ccc3c(c2)C(C)(C)C(=O)N3C)cc1 (stereo not given)	1.8	-1.6
COc1ccc(Cl)cc1S(=O)(=O)N1CCC(C(=O)NCCC2=CCCCC2)CC1	1.4	1.7
Nc1ccc(C2=Nc3cccc4cccc(c34)N2)cc1	0.12	-1.5
CCn1cc(/C=C(\NC(=O)c2ccccc2F)C(=O)NCCCN2CCOCC2)c2ccccc21	1.1	-0.6
O=C(COc1ccc(Br)cc1Br)NC(=S)Nc1cccc(CO)c1	2	-0.65
O=C(c1ccc(OC2CCN(C/C=C/c3ccc(F)cc3)CC2)cc1)N1CCCCC1	0.15	0.22
CCn1c(SCC(=O)Nc2ccc(Cl)cc2)nc2nc3c(cc2c1=O)CCCC3	0.29	0.55
O=C(N/C(=C\c1ccc(Br)cc1)C(=O)N1CCOCC1)c1ccco1	0.04	-0.01
CCOC(=O)c1oc2ccccc2c1N	0.77	-0.83
CN(CC(=O)Nc1ccc(N2CCOCC2)cc1)CC(=O)Nc1cccc(C#N)c1	0.83	0.01
Cc1cc(/C=C2\SC(=Nc3ccc(F)cc3)NC2=O)c(C)n1-c1ccc(S(N)(=O)=O)cc1	0.05	0.69
CCN1CCN(CC2COc3ccccc3O2)CC1 (stereo not given)	0.4	1.5
CCOC(=O)C1C(=O)NC(N2CCc3ccccc32)=NC1c1ccccc1 (stereo not given)	2.1	-0.17
CCC(=Nc1ccc(N)cc1)C1=C(O)C(C(=O)OC)C(C)(C)CC1=O (stereo not given)	0.5	-2.1

Some values from the entries so far:
In KCNQ2 pot, NC(=O)C1CCN(C(=O)c2cc3n(n2)C(C(F)(F)F)CC(c2ccco2)N3)CC1 (stereo not given) has 0.8
In KCNQ2 pot baseline, O=C(N/C(=C\c1ccc(Br)cc1)C(=O)N1CCOCC1)c1ccco1 has -0.01
In KCNQ2 pot baseline, COc1ccccc1NS(=O)(=O)c1ccc2oc(=O)ccc2c1 has -0.62

Carrying on:
SMILES	KCNQ2 pot	KCNQ2 pot baseline
COc1ccc(N(CCC#N)S(=O)(=O)c2cccc3nsnc23)cc1	0.01	-0.81
COc1cc2c(c(OC)c1OC)-c1c(cc3c(c1OC)OCO3)C1OC2[C@@H](C)[C@H]1C (stereo not given in full)	0.02	1.8
CC(=O)Nc1ccc(S(=O)(=O)N2CCN(c3cccc(C)c3C)CC2)cc1	0.44	0.06
N#C/C(=C\c1ccc(-c2ccccc2)cc1)c1nc(-c2ccco2)cs1	0.25	1
CCOc1ccc(S(=O)(=O)n2ccc(C)n2)c2ccccc12	0.48	-0.03
Cc1c(NC(=S)NC(=O)c2ccc(-c3ccc(Cl)cc3)o2)cccc1C(=O)O	3.2	0
CCCNC(=O)c1ccccc1NC(=O)C1=CSCCO1	2.3	-0.12
COCCCNC(=O)c1cn(Cc2c(F)cccc2Cl)nn1	1.1	1.4
Cc1cc(NC(=O)/C(C#N)=C/c2ccc(-c3ccc(SC(F)F)cc3)o2)n(-c2ccccc2)n1	0.03	0.59
O=C(NCCO)/C(=C\c1ccc2c(c1)OCO2)NC(=O)c1ccc(Br)cc1	0.12	-1.3
CCCN1CCN(C(=O)CCNC(=O)Cn2cnc3ccccc3c2=O)CC1	0.02	-2.6
CCCCn1nnc(NC(=O)COc2ccc(Cl)c(C)c2)n1	0.55	-0.91

A draw from above in order of SMILES length, descending:
SMILES	KCNQ2 pot	KCNQ2 pot baseline
Cc1cc(NC(=O)/C(C#N)=C/c2ccc(-c3ccc(SC(F)F)cc3)o2)n(-c2ccccc2)n1	0.03	0.59
COc1cc2c(c(OC)c1OC)-c1c(cc3c(c1OC)OCO3)C1OC2[C@@H](C)[C@H]1C (stereo not given in full)	0.02	1.8
O=C(NCCO)/C(=C\c1ccc2c(c1)OCO2)NC(=O)c1ccc(Br)cc1	0.12	-1.3
COc1ccc(N(CCC#N)S(=O)(=O)c2cccc3nsnc23)cc1	0.01	-0.81
CCCCn1nnc(NC(=O)COc2ccc(Cl)c(C)c2)n1	0.55	-0.91

Following part:
SMILES	KCNQ2 pot	KCNQ2 pot baseline
COc1ccccc1CN(CC(=O)NCc1ccc2c(c1)OCO2)C(=O)c1csnn1	2.9	-0.38
Nc1cc(=O)[nH]c(SCC(=O)N2CCCc3ccccc32)n1	1.5	-0.56
O=C(Nc1ccc(NC(=S)NC(=O)c2cccs2)cc1)c1ccccc1	0.38	0.86
CC1C(c2ccccc2)N(C)C(c2ccccc2)CC1(O)c1ccccc1 (stereo not given)	0.62	1.6
O=C(Nc1ccc2c(c1)OCCO2)c1ccc(Br)o1	0.55	0.16
CC1(C)CC(=O)c2cnc(NC(=O)C3CCCC3)nc2C1	0.64	0.73
Cc1csc(CCc2nc(C)cs2)n1	1.7	-1.4
CCOc1cc2c(cc1OCC)C(c1ccc(C(=O)O)cc1)NCC2 (stereo not given)	0.13	-1.4
COc1cc(SC)ccc1C(=O)Nc1nc(C)cc(C)n1	0.69	-0.31
CCCCN(c1ccccc1)c1ncnc2nc[nH]c12	0.89	-0.23
CCOc1ccc2nc(NC(=O)CSc3nc4cccnc4n3C)sc2c1	1.2	0.1
CCN(CC)S(=O)(=O)c1cccc(C(=O)N/N=C/c2cccc(O)c2O)c1	1.2	0.86
CCCC(=O)Nc1c2c(nn1-c1ccccc1)CSC2	0.09	1.1
CCN(CC)C(=O)COc1ccc(S(=O)(=O)N2CCCC2)cc1	0.5	-0.4
NNS(=O)(=O)c1ccc2c(c1)Cc1cc(S(=O)(=O)NN)ccc1-2	0.03	0.06
Cc1cc(C(=O)NNC(=O)c2ccc(C)s2)c(C)o1	0.27	-0.14
O=C1CCC/C(=N\NC(=O)c2ccc(CSc3cccc4cccnc34)cc2)C1	0.98	0.3
COc1cccc(CNCCSc2nnnn2C)c1	0.75	0.15
Cc1c(Br)c(C(F)(F)F)nn1CC(=O)NCCCn1ccnc1	0.63	2.5
CC(=O)Nc1ccc(NC(=O)c2ccco2)cc1	0.17	-0.41
COc1ccc(S(=O)(=O)NCC(=O)N(CC(=O)NCC2CCCO2)c2cc(C)ccc2C)cc1 (stereo not given)	0.04	-1.3
NCc1ccccc1COc1ccccc1	0.53	-0.88
O=C(c1ccc2c(=O)n(-c3ccccc3)c(=O)[nH]c2c1)N1CCCCC1	0.69	0.21
CC(C)N(C(C)C)S(=O)(=O)c1ccc(Cl)nc1	0.06	-0.06
CCCOc1ccc(CCC(=O)N/N=C/c2ccncc2)cc1	0.33	-0.72
Cc1ccc(S(=O)(=O)NCC(=O)N(CC(=O)NCC2CCCO2)c2ccc(Cl)cc2)cc1 (stereo not given)	0.03	1.1
Cc1ccc(-c2nn3c(=O)c(C)nnc3s2)cc1	0.3	-0.02
Cc1cccc(OCCNc2cc(N3CCOCC3)ccc2[N+](=O)[O-])c1	0.8	0.42
Cn1c(SCC(=O)Nc2cccc(F)c2)nnc1-c1cccnc1	0.73	-0.01
CCCCc1cc(=O)oc2cc(OS(C)(=O)=O)ccc12	0.42	-0.49
CCN(CC)C(=O)CSc1nnc(COc2cccc(C)c2)n1C	1.2	-0.85
Cn1c(=O)c2c(ncn2CC(=O)Nc2ccccc2N2CCOCC2)n(C)c1=O	0.09	-0.62
O=C(N/N=C/c1ccco1)c1cccc(N2Cc3ccccc3C2)c1	2.4	-1.4
CC(=O)N(Cc1nc2sc(C)c(C)c2c(=O)[nH]1)C1CCCC1	0.38	3.1
CCOc1ccc(C(=O)NCC(=O)NCC2CCCCC2)cc1OCC	1.4	-0.18
N#CC(c1ccncc1)(c1ncc(C(F)(F)F)cc1Cl)N1CCOCC1 (stereo not given)	1.2	0.25
O=C(CCc1nnc2ccc(N3CCC4(CC3)OCCO4)nn12)Nc1cc(F)ccc1F	1.4	0.61
COc1cc(OC)cc(C(=O)NNC(=S)Nc2ccc(S(N)(=O)=O)cc2)c1	1	0.47
Cn1cc(Br)c(C(=O)n2cc(Br)cn2)n1	0.72	1.3
Cc1nonc1NC(=O)CSc1nc2ccccc2cc1C#N	1.7	-0.08
CCn1c(=O)c2c(nc3n2CCCN3CCc2ccc(OC)c(OC)c2)n(C)c1=O	2	1.9
Cc1cccc2cc(/C=N/NC(=O)CN3CCOCC3)c(Cl)nc12	1.1	-0.04
CCOC(=O)C(=O)N/N=C/c1ccc(F)cc1	0.32	-0.35
Cc1nn(-c2ccccc2)c(NC(=O)c2cccs2)c(-c2ccccc2)c1=O	0.18	0.54

Screening data (PubChem)

This is a subset. The share of hits here may be higher or lower than overall.
